Screening data: PubChem, Broad Institute
DUX4 txn inh = DUX4-mediated transcription inhibition; 37,000 compounds, 0.8% hits; activity change, negative = inhibition, % (test concentration not listed); 293T-iDUX4 ZSCAN4-Gaussia luciferase reporter, 24 h; stronger effect = lower value;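 active = -10% or lower and over 25 points stronger than a control reporter; inconclusive = -10% or lower with a smaller gap; inactive = above -10%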;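 also: 0% = median of neutral control wells and -100% = median of positive control wells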
DUX4 txn inh difference = also measured in DUX4 txn inh; calls as there; Gaussia minus Italica difference, %; measured here: selective DUX4 reporter inhibition;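 worked out from the two reporters; negative = selective loss of the DUX4 reporter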
DUX4 txn inh control = further read-out of DUX4 txn inh, marked with its call; activity change, negative = inhibition, %; measured here: Italica tet-on control reporter;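 0 = neutral control and -100 = positive control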
Numbers without * were called inactive; ? = inconclusive; · = no result given. Not all compounds are listed; count on the stated rates, not on these rows.

Sample of the layout:
Results follow in this order: DUX4 txn inh	DUX4 txn inh difference	DUX4 txn inh control
1) CCCNC(=O)N(C)C[C@@H]1Oc2cc(C3=CCCC3)ccc2S(=O)(=O)N([C@@H](C)CO)C[C@H]1C
    3	1	1.5
2) N#C[C@@H]1[C@H](c2ccc(C#Cc3ccccc3F)cc2)[C@H](CO)N1C(=O)C1CCOCC1
    1	2	-0.7
3) CCS(=O)(=O)N1CCCCN2[C@H](CO)[C@@H](c3ccc(-c4ccc(C(=O)N(C)C)cc4)cc3)[C@H]2C1
    3	0	2.3

The listing, from the first entry:
Results follow in this order: DUX4 txn inh	DUX4 txn inh difference	DUX4 txn inh control
1) CCCNC(=O)N(C)C[C@@H]1Oc2cc(C3=CCCC3)ccc2S(=O)(=O)N([C@@H](C)CO)C[C@H]1C
    3	1	1.5
2) N#C[C@@H]1[C@H](c2ccc(C#Cc3ccccc3F)cc2)[C@H](CO)N1C(=O)C1CCOCC1
    1	2	-0.7
3) CCS(=O)(=O)N1CCCCN2[C@H](CO)[C@@H](c3ccc(-c4ccc(C(=O)N(C)C)cc4)cc3)[C@H]2C1
    3	0	2.3
4) Cn1cnc(CCNC(=O)C[C@@H]2CC[C@H]3[C@@H](COC[C@H](O)CN3C(=O)Nc3ccc(C(F)(F)F)cc3)O2)c1
    -2	3	-4.4
5) C[C@@H]1CN([C@H](C)CO)C(=O)c2cc(NC(=O)CCN3CCOCC3)ccc2O[C@H]1CN(C)S(=O)(=O)c1cccs1
    -1	-4	2.6
6) CCN1[C@@H]2c3ccc(C4=CCCC4)c(=O)n3C[C@@H]2[C@@H](CO)[C@@H]1C(=O)NCc1cccc(OC)c1
    -5	-2	-2.7
7) C/C=C/c1ccc2c(c1)O[C@@H](CN(C)Cc1ccc(C(=O)O)cc1)[C@H](C)CN([C@@H](C)CO)S2(=O)=O
    1	0	0.8
8) COCC(=O)Nc1ccc2c(c1)OC[C@H](C)N(CCC(F)(F)F)C[C@H](C)[C@@H](OC)CN(C)C2=O
    10	3	6.1
9) O=C(C1CCC1)N1CCCCN2[C@H](CO)[C@H](c3ccc(-c4ccncc4)cc3)[C@H]2C1
    37	18	19
10) CNC[C@H]1OCCCC[C@@H](C)Oc2ccc(NS(=O)(=O)c3c(C)noc3C)cc2C(=O)N([C@@H](C)CO)C[C@H]1C
    1	3	-1.7

Following part.
Results follow in this order: DUX4 txn inh	DUX4 txn inh difference	DUX4 txn inh control
11) COc1cccc(CNC(=O)[C@@H]2[C@@H](CO)[C@@H]3Cn4c(ccc(-c5cncnc5)c4=O)[C@@H]3N2C)c1
    3	4	-1.4
12) CO[C@H]1CN(C)C(=O)c2cc(NC(=O)NC(C)C)ccc2OC[C@H](C)N(CCC(F)(F)F)C[C@H]1C
    -1	-3	1.5
13) Cc1noc(C)c1NC(=O)Nc1ccc2c(c1)C(=O)N([C@@H](C)CO)C[C@H](C)[C@@H](CN(C)C(=O)Cc1ccccc1)OCCCC[C@@H](C)O2
    2	0	2.3
14) CN(C)CCCNC(=O)[C@H]1[C@H](CO)[C@H]2Cn3c(ccc(-c4ccncc4)c3=O)[C@@H]1N2C(=O)C1CC1
    -3	-2	-1.3
15) CC(C)(O)C#Cc1ccc([C@H]2[C@@H](CO)N3CCCCN(C(=O)c4ccc(F)cc4)C[C@H]23)cc1
    -5	4	-8.5
16) O=C(C[C@H]1CC[C@@H]2[C@H](COC[C@@H](O)CN2C(=O)Nc2cccc(F)c2)O1)NCCCN1CCOCC1
    1	-10	11
17) COc1cccc(NC(=O)N(C)C[C@H]2Oc3ncc(C#Cc4cccnc4)cc3C(=O)N([C@H](C)CO)C[C@@H]2C)c1
    1	1	0.0
18) CC(C)CC#Cc1ccc([C@@H]2[C@H]3CN(C(=O)c4ccccn4)CC(=O)N3[C@H]2CO)cc1
    2	3	-1.2
19) COCC(=O)N1[C@H](CO)[C@@H]2c3ccccc3N(C(=O)Nc3cc(F)ccc3F)C[C@@H]21
    -4	-1	-2.8
20) C[C@@H]1CCCCO[C@@H](CN(C)C(=O)Nc2ccc(C(F)(F)F)cc2)[C@@H](C)CN([C@H](C)CO)C(=O)c2cc(NS(=O)(=O)c3cn(C)cn3)ccc2O1
    3	0	2.5

Further records.
Results follow in this order: DUX4 txn inh	DUX4 txn inh difference	DUX4 txn inh control
21) CNC(=O)C[C@H]1CC[C@@H]2[C@@H](COc3ccc(NC(=O)NC4CCCC4)cc3C(=O)N2C)O1
    13	23	-9.7
22) CN(C)CC(=O)N1[C@@H](C#N)[C@H](c2ccc(-c3ccccc3F)cc2)[C@@H]1CO
    -3	1	-3.8
23) Cc1noc(C)c1S(=O)(=O)N(C)C[C@@H]1OCCCC[C@@H](C)Oc2ccc(NS(=O)(=O)c3cn(C)cn3)cc2C(=O)N([C@H](C)CO)C[C@@H]1C
    -1	-1	-0.2
24) CCC(=O)N1CC2(CCN(Cc3ccc(Cl)cc3)CC2)c2c(n(C)c3cc(OC)ccc23)[C@H]1CO
    ?	·	·
25) CCS(=O)(=O)N1CC2(C1)[C@@H](c1ccccc1)[C@@H](CO)N2C(=O)C1CCC1
    0	-2	2.5
26) CCCC(=O)Nc1ccc2c(c1)OC[C@@H](C)N(C(=O)c1cccnc1)C[C@H](C)[C@H](OC)CN(C)C2=O
    -9	-7	-2.2
27) COc1cccc(-c2ccc(C3[C@@H]4CN(C(=O)c5ccc(F)cc5)C[C@H]3N4)cc2)c1 (stereo partly drawn)
    ?	·	·
28) Cc1ccc(-c2cnc3c(c2)C(=O)N([C@H](C)CO)C[C@H](C)[C@H](CN(C)Cc2ccccc2C(=O)O)O3)cc1
    2	3	-0.4
29) O=C(CC(F)(F)F)N1C[C@H]2[C@@H](c3ccccc31)[C@@H](CO)N2C(=O)C1CCCCC1
    -1	-3	1.9
30) O=C(C[C@@H]1C[C@H]2c3cc(NC(=O)C4CCOCC4)ccc3O[C@H]2[C@@H](CO)O1)NCc1ccc2c(c1)OCO2
    6	5	0.5

Other records.
Results follow in this order: DUX4 txn inh	DUX4 txn inh difference	DUX4 txn inh control
31) C[C@@H]1CN([C@@H](C)CO)C(=O)CCCn2nncc2CO[C@@H]1CN(C)S(=O)(=O)c1ccc2ccccc2c1
    -1	-2	0.9
32) C[C@@H]1CN([C@@H](C)CO)C(=O)CCCn2cc(nn2)CO[C@H]1CN(C)CC1CCCCC1
    -3	-3	0.2
33) C[C@H](O)C#Cc1cnc2c(c1)C(=O)N([C@@H](C)CO)C[C@H](C)[C@H](CN(C)Cc1cncnc1)O2
    1	1	0.3
34) CCC(=O)N1CC[C@@H]2[C@H]1c1cc(-c3cccc(C#N)c3)ccc1N[C@@H]2CO
    -2	3	-4.9
35) CCCNC(=O)N1CC(=O)N2[C@@H](CO)[C@@H](c3ccc(C#CCC4CCCC4)cc3)[C@@H]2C1
    -4	4	-8.0
36) O=C(c1ccccc1)N1C[C@@H]2[C@H](c3ccccc31)[C@H](CO)N2C(=O)CN1CCOCC1
    -4	0	-4.2
37) CCNC(=O)c1cc2c(c(-c3cccc(-c4cccnc4)c3)n1)[C@@H](CCO)N(S(C)(=O)=O)C2
    6	1	5.5
38) O=S(=O)(c1ccc(F)cc1)N1C[C@H]2[C@@H](c3ccccc31)[C@@H](CO)N2Cc1ccccc1Cl
    2	-1	2.5
39) N#C[C@@H]1[C@H](c2ccccc2-c2cccc(F)c2)[C@H](CO)N1C(=O)C1CCCCC1
    ?	·	·
40) C[C@@H]1CN([C@@H](C)CO)C(=O)c2ccccc2-c2ccccc2CO[C@@H]1CN(C)Cc1cccnc1
    1	-2	2.6

Random excerpt: 4 records from the list.
Results follow in this order: DUX4 txn inh	DUX4 txn inh difference	DUX4 txn inh control
35) CCCNC(=O)N1CC(=O)N2[C@@H](CO)[C@@H](c3ccc(C#CCC4CCCC4)cc3)[C@@H]2C1
    -4	4	-8.0
40) C[C@@H]1CN([C@@H](C)CO)C(=O)c2ccccc2-c2ccccc2CO[C@@H]1CN(C)Cc1cccnc1
    1	-2	2.6
36) O=C(c1ccccc1)N1C[C@@H]2[C@H](c3ccccc31)[C@H](CO)N2C(=O)CN1CCOCC1
    -4	0	-4.2
38) O=S(=O)(c1ccc(F)cc1)N1C[C@H]2[C@@H](c3ccccc31)[C@@H](CO)N2Cc1ccccc1Cl
    2	-1	2.5

Continuation.
Results follow in this order: DUX4 txn inh	DUX4 txn inh difference	DUX4 txn inh control
41) O=C(C[C@H]1CC[C@H](NS(=O)(=O)c2ccc(F)cc2)[C@H](CO)O1)NCCc1ccncc1
    -4	-11	6.9
42) Cc1ccccc1S(=O)(=O)N1CC[C@@H]2[C@@H](CO)Nc3ccc(-c4ccc(F)cc4)cc3[C@@H]21
    ?	·	·
43) COc1cccc(S(=O)(=O)N(C)C[C@H]2OCc3cn(nn3)CCCC(=O)N([C@H](C)CO)C[C@@H]2C)c1
    -2	-4	1.6
44) CO[C@@H]1CN(C)C(=O)c2cc(NC(=O)C3CCCC3)ccc2OC[C@@H](C)N(C(=O)CC2CC2)C[C@@H]1C
    6	7	-0.2
45) CO[C@@H]1CN(C)C(=O)c2cc(NC(=O)C3CCCC3)ccc2OC[C@@H](C)N(C(=O)CC2CC2)C[C@H]1C
    1	-3	3.5
46) COCCNC(=O)C[C@H]1C[C@@H]2c3cc(NC(=O)NC4CCCC4)ccc3O[C@@H]2[C@@H](CO)O1
    -1	-3	2.3
47) COc1ccc(NC(=O)N[C@H]2CC[C@H](CCNC(=O)c3ccccc3F)O[C@@H]2CO)cc1
    0	0	0.1
48) O=C(Nc1ccccc1)N1C[C@H]2[C@@H](c3ccccc31)[C@@H](CO)N2CC1CCCC1
    -1	-5	3.1
49) CO[C@H]1CN(C)C(=O)c2cc(NS(=O)(=O)c3ccc(Cl)cc3)ccc2OC[C@@H](C)N(C(=O)NC(C)C)C[C@@H]1C
    1	1	-0.5
50) COc1ccccc1-c1ccc([C@H]2[C@H](CO)N3CCCCN(C(=O)c4cccnc4)C[C@@H]23)cc1
    ?	·	·

The list continues:
Results follow in this order: DUX4 txn inh	DUX4 txn inh difference	DUX4 txn inh control
51) CN(C)CC#Cc1ccc([C@@H]2[C@H]3CN(C(=O)c4ccccc4)CC(=O)N3[C@H]2CO)cc1
    7	5	1.5
52) COc1ccc2c3c(n(C)c2c1)[C@H](CO)NCC31CN(C(C)=O)C1
    10	-3	13
53) COCC(=O)N(C)C[C@@H]1Oc2cc(C#CCC3CCCC3)ccc2S(=O)(=O)N([C@H](C)CO)C[C@@H]1C
    3	6	-2.1
54) CCCNC(=O)N1[C@@H]2c3ccc(-c4ccc(F)cc4)c(=O)n3C[C@@H]2[C@@H](CO)[C@@H]1C(=O)N1CCCCC1
    10	7	3.1
55) CNC[C@H]1Oc2c(NS(=O)(=O)c3cn(C)cn3)cccc2C(=O)N([C@H](C)CO)C[C@@H]1C
    1	1	-0.6
56) O=C(C[C@H]1C[C@@H]2c3cc(NC(=O)CC4CC4)ccc3O[C@@H]2[C@@H](CO)O1)NCCN1CCCCC1
    -8	-12	4.0
57) CCC(=O)N1CC(=O)N2[C@H](CO)[C@@H](c3ccc(-c4ccccc4F)cc3)[C@H]2C1
    -5	-6	1.7
58) O=C(C[C@H]1C[C@H]2c3cc(NC(=O)Nc4ccccc4F)ccc3O[C@H]2[C@@H](CO)O1)NCc1ccncc1
    0	-3	3.3
59) COc1cccc(S(=O)(=O)Nc2ccc3c(c2)[C@H]2C[C@H](CC(=O)NCc4ccccc4F)O[C@@H](CO)[C@H]2O3)c1
    4	4	-0.8
60) CC(=O)N1[C@H](CO)[C@H](c2ccccc2)[C@@H]1CNC(=O)c1ccncc1
    -2	-1	-0.9

More results follow:
Results follow in this order: DUX4 txn inh	DUX4 txn inh difference	DUX4 txn inh control
61) CN(C)C(=O)C[C@H]1CC[C@H]2[C@@H](COC[C@@H](O)CN2S(=O)(=O)c2ccccc2)O1
    10	7	3.7
62) CCCNC(=O)Nc1ccc2c(c1)OC[C@@H](C)N(CCC(F)(F)F)C[C@@H](C)[C@H](OC)CN(C)C2=O
    3	1	1.8
63) COc1cccc(CN2[C@H](CO)[C@@H](c3ccccc3)C23CN(Cc2ccccc2OC)C3)c1
    ?	·	·
64) Cc1ccccc1S(=O)(=O)N1CC[C@H]2[C@H](CO)Nc3ccc(-c4ccccc4F)cc3[C@H]21
    -1	-9	8.0
65) N#C[C@@H]1[C@H](c2ccc(-c3cncnc3)cc2)[C@@H](CO)N1C(=O)Cc1ccccc1
    -3	1	-3.6
66) CN1C(=O)c2cc(NC(=O)c3cccs3)ccc2OC[C@@H]2O[C@H](CC(=O)NCC3CC3)CC[C@@H]21
    2	3	-1.4
67) C[C@@H]1CCCCO[C@@H](CN(C)CC2CC2)[C@H](C)CN([C@@H](C)CO)C(=O)c2cc(NC(=O)c3ccccc3)ccc2O1
    5	4	0.7
68) Cc1cc(C(=O)Nc2ccc3c(c2)C(=O)N(C)[C@@H]2CC[C@H](CC(=O)O)O[C@@H]2CO3)no1
    5	2	2.4
69) C[C@H](CO)N1C[C@H](C)[C@H](CN(C)C(=O)NC2CCCCC2)OCCCC[C@H](C)Oc2ccc(NC(=O)CCC(F)(F)F)cc2C1=O
    5	1	4.1
70) O=C(C[C@@H]1C[C@@H]2c3cc(NC(=O)Cc4ccncc4)ccc3O[C@@H]2[C@H](CO)O1)NCc1cccnc1
    3	4	-1.0

(next part)
Results follow in this order: DUX4 txn inh	DUX4 txn inh difference	DUX4 txn inh control
71) COc1cccc(C#Cc2ccc([C@@H]3[C@@H](CO)N4C(=O)CN(S(=O)(=O)c5ccccc5C)C[C@H]34)cc2)c1
    ?	·	·
72) O=C(O)C[C@@H]1C[C@@H]2c3cc(NC(=O)c4ccc5c(c4)OCO5)ccc3O[C@@H]2[C@@H](CO)O1
    4	2	2.3
73) CCCC#Cc1ccc([C@H]2[C@@H](C#N)N(C(=O)C3CCCCC3)[C@H]2CO)cc1
    3	1	1.5
74) COCC(=O)Nc1ccc2c(c1)[C@H]1C[C@@H](CC(=O)NCC(F)(F)F)O[C@@H](CO)[C@H]1O2
    1	-5	6.5
